YopH inh: YopH tyrosine phosphatase inhibitors, primary screen, biochemical, fluorescence Ex485/Em525; YopH tyrosine phosphatase [Yersinia enterocolitica]; inhibition, %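 (about 10 µM by stock and volumes)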; 140,000 tested, 0.16% active;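 active = inhibition of 50% or more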;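 also: controls were vehicle for no effect and minimum signal wells for full effect; inactives centre near -20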
Arbovirus anti: antivirals against arbovirus infection, primary screen, cell-based, full library, 10K replicate subset; arbovirus infection cell-based antiviral screen; inhibition, % at 10 µM; 200,000 tested, 0.37% active;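 active = inhibition from about 30%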;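 also: bluetongue infection of BSR cells; cell survival read as ATP light after 72 h; 0% = infected wells without compound and 100% = uninfected wells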
Mtb growth: M. tuberculosis H37Rv growth inhibitors, H37Rv strain (AID 1626) | inhibition, % at 10 µM; hits with a dose series show IC50 in µM | M. tuberculosis H37Rv growth inhibition; higher % means a stronger effect | 220,000 tested, 0.95% active;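 active = confirmed in a dose series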;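 also: bacteria incubated seven days before Alamar blue readout; 0% = bacteria only wells and 100% = bacteria with antibiotic wells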
Arbovirus anti repeat: further read-out of Arbovirus anti, marked with its call; inhibition, %; measured here: 10K subset replicate screen; many hits read low in the repeat;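 first of two repeat runs on a subset; 0% = infected and 100% = uninfected wells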
Active calls of the source: *; nt = no result given. An excerpt; count on the stated rates, not on these rows.

| smiles | Arbovirus anti repeat | Arbovirus anti | Mtb growth | YopH inh |
| --- | --- | --- | --- | --- |
| CCN1CCN(c2ncnc3c2oc2nc(C)c4c(c23)CC(C)(C)OC4)CC1 | nt | nt | nt | -22.9 |
| CCOc1ccc(C2CC(c3ccc(Br)cc3)Nc3nc(N)nn32)cc1 (stereo not given) | nt | nt | nt | -6.6 |
| Cc1ccc(-c2nnc3sc(-c4ccc5c(c4)OCCO5)nn23)cc1 | nt | nt | nt | 5.7 |
| O=S(=O)(c1ccc2oc3ccc(S(=O)(=O)N4CCCC4)cc3c2c1)N1CCCC1 | nt | nt | nt | 1.0 |
| Cc1cccc(-c2c3c(=O)n(C)c(=O)n(C)c3c3nnc4ccccc4n23)c1 | nt | nt | nt | -30.5 |
| CN(C)CCCN1C(=O)C(=O)/C(=C(/O)c2ccc3c(c2)OCO3)C1c1cccnc1 (stereo not given) | nt | nt | nt | -26.8 |
| CCOC(=O)C1(c2ccccc2)NC(c2ccc(N(C)C)cc2)C2C(=O)N(C)C(=O)C21 (stereo not given) | nt | nt | nt | -26.1 |
| Cn1c(=O)c(C(=O)Nc2cccnc2)c(O)c2ccccc21 | nt | nt | nt | -24.6 |
| Cn1c(=O)c2c(SC3CCCC3)nc(CC(C)(C)C)nc2n(C)c1=O | nt | nt | nt | -17.6 |
| CCOC(=O)c1sc(NC(=O)CSc2nc3c(cc2C#N)CCC3)c(C#N)c1C | nt | nt | nt | -15.8 |
| COC(=O)C(C)Sc1nc(-c2ccc(OC)cc2)nc2c1c(=O)n(C)c(=O)n2C (stereo not given) | nt | nt | nt | -13.1 |
| CN(C)c1ccc(C(c2nnnn2C2CCCCC2)N2CCN(C(=O)c3ccco3)CC2)cc1 (stereo not given) | nt | nt | nt | 1.9 |
| Cn1c(=O)c2c(nc(SCC(=O)N3CCCc4ccccc43)n2C)n(C)c1=O | nt | nt | nt | -5.6 |
| Cc1ccc(S(=O)(=O)NCCC(=O)N2CCCCC2)cc1 | nt | nt | nt | -2.8 |
| O=c1[nH]c(CN2CCN(Cc3ccccc3)CC2)nc2sc3c(c12)CCC3 | nt | nt | nt | -29.3 |
| CC(C)(C)n1ncc(Oc2ccc(Oc3cnn(C(C)(C)C)c(=O)c3Cl)cc2)c(Cl)c1=O | nt | nt | nt | -24.4 |
| CCn1cc(C(=O)Nc2nnc(C)s2)c(=O)c2cc(F)c(N3CCN(C(=O)c4ccco4)CC3)cc21 | nt | nt | nt | 3.7 |
| Cc1nnc2sc(-c3cccc(NC(=O)c4ccc(-c5cccc(Cl)c5)o4)c3)nn12 | nt | nt | nt | 5.8 |
| CCn1cc(C(=O)N=c2sc3ccccc3n2C)c(=O)c2ccc(C)nc21 | nt | nt | nt | 15.1 |
| O=C(C1CCC(C(=O)N2CCCC2)CC1)N1CCCC1 (stereo not given) | nt | nt | nt | -19.9 |
| Cc1nn2c(CN(C(=O)c3ccco3)c3ccccc3)nnc2c2ccccc12 | nt | nt | nt | 5.6 |
| Cc1cccn2c(=O)c3cc(C(=O)N4CCCc5ccccc54)n(C)c3nc12 | nt | nt | nt | -8.8 |
| CCOC(=O)c1sc(NC(=O)C2CCCO2)c(C(=O)OC)c1C (stereo not given) | nt | nt | nt | -28.3 |
| O=C(CSc1nnc2c3cc(F)ccc3nc(-c3ccccc3)n12)N1CCOCC1 | nt | nt | nt | 8.1 |
| COC(=O)c1ccc(C(=O)OC)c(NC(=O)CSc2nc(-c3ccco3)cc(C(F)(F)F)n2)c1 | nt | nt | nt | -34.2 |
| O=C(Nc1ccccc1-c1nc2ccccc2o1)c1ccc2c(c1)OCCO2 | nt | nt | nt | -11.9 |
| Cc1coc2c(C)c3oc(=O)c4c(c3cc12)CCC4 | nt | nt | nt | -34.1 |
| COc1ccc(-c2nn3c(-c4ccncc4)nnc3s2)cc1OC | nt | nt | nt | 8.2 |
| CN(C)c1ccnc2sc3c(=O)n(-c4ccc(Cl)cc4)cnc3c12 | nt | nt | nt | 12.3 |
| CCn1c(SCC(=O)N2CCC(C(N)=O)(N3CCCCC3)CC2)nc2ccccc2c1=O | nt | nt | nt | -75.2 |
| Cc1ccc2c(c1)sc1ncc(NC(=O)c3ccccc3)c(=O)n12 | nt | nt | nt | 4.0 |
| O=C(CSc1nc2cccnc2n1Cc1ccccc1)N1CCc2ccccc21 | nt | nt | nt | -17.1 |

Entries shown so far containing two or more sulfur atoms (two):
| smiles | Arbovirus anti repeat | Arbovirus anti | Mtb growth | YopH inh |
| --- | --- | --- | --- | --- |
| O=S(=O)(c1ccc2oc3ccc(S(=O)(=O)N4CCCC4)cc3c2c1)N1CCCC1 | nt | nt | nt | 1.0 |
| CCOC(=O)c1sc(NC(=O)CSc2nc3c(cc2C#N)CCC3)c(C#N)c1C | nt | nt | nt | -15.8 |

Further entries follow:
| smiles | Arbovirus anti repeat | Arbovirus anti | Mtb growth | YopH inh |
| --- | --- | --- | --- | --- |
| CC(=O)c1cnc(Nc2nc(C)c3cc(C)ccc3n2)nc1C | nt | nt | nt | -33.2 |
| CCc1nn2c(=O)cc(CSc3nc4sc5c(c4c(=O)n3C)CCCC5)nc2s1 | nt | nt | nt | -31.3 |
| COc1ccc2c(c1)c(=O)oc1c(C)c3occ(C)c3cc12 | nt | nt | nt | -26.0 |
| Cn1c(=O)c2ncn(CC(=O)Nc3ccc4oc(-c5cccc6ccccc56)nc4c3)c2n(C)c1=O | nt | nt | nt | -12.3 |
| O=C1c2ccccc2C(=O)N1CCCCN1CCN(CCCCN2C(=O)c3ccccc3C2=O)CC1 | nt | nt | nt | -15.1 |
| Cc1cc(NC(=O)C23CCC(C)(c4nc5cc(Cl)c(Cl)cc5nc42)C3(C)C)no1 (stereo not given) | nt | nt | nt | -5.8 |
| Cc1cc(NC(=O)c2cnc3ccccn3c2=O)no1 | nt | nt | nt | -14.6 |
| CCCCN1C2CCCC1CC(NC(=O)N(C(C)C)C(C)C)C2 (stereo not given) | nt | nt | nt | -25.9 |
| Cc1ccc(C)c(NC(=O)CC(NCCCN2CCOCC2)C(=O)O)c1 (stereo not given) | nt | nt | nt | -34.5 |
| Cc1ccc2nc(NC3=NCN(Cc4ccc5c(c4)OCO5)CN3)nc(C)c2c1 | nt | nt | nt | 5.6 |
| O=C(CCC(=O)N1CCc2ccccc21)N1CCc2ccccc21 | nt | nt | nt | -27.2 |
| CCOC(=O)c1sc(NC(=O)c2c(C)noc2C)c(C(=O)OCC)c1C | nt | nt | nt | -131.5 |
| CCOC(=O)N1CCC(NC(=O)Cc2ccc(-n3c(=O)[nH]c4ccccc4c3=O)cc2)CC1 | nt | nt | nt | -15.7 |
| Cc1c(=O)n(OCc2c(F)cccc2F)c2ccccc2[n+]1[O-] | nt | nt | nt | -5.0 |
| Cc1ccc2[nH]c(=O)c(-c3noc(-c4ccncc4)n3)cc2c1 | nt | nt | nt | 23.3 |
| CCN1C(=O)/C(=c2/s/c(=C3\SC(C)=C(C)N3CC)c(=O)n2CC)N(c2ccccc2)C1=S | nt | nt | nt | -0.4 |
| CCc1nnc(NC(=O)CN2CCN(c3ccc(Cl)cc3)CC2)s1 | nt | nt | nt | -4.4 |
| Cc1ccc(-c2c3c(=O)n(C)c(=O)n(C)c3c3nnc4ccccc4n23)cc1 | nt | nt | nt | -18.4 |
| c1cc(-c2noc(-c3ccc4c(c3)OCO4)n2)ccn1 | nt | nt | nt | -33.8 |
| O=C(CSc1nnc(-c2cccs2)n1-c1ccccc1)N1CCc2ccccc21 | nt | nt | nt | -6.3 |
| Cc1cc(C)n(CC(O)COc2ccc(OCC(O)Cn3nc(C)cc3C)cc2)n1 (stereo not given) | nt | nt | nt | -6.1 |
| Cc1ccc(N2C(=O)c3oc4ccccc4c(=O)c3C2c2cccnc2)nc1 (stereo not given) | -0.9 | 3.8 | nt | nt |
| COc1ccc(C)cc1NC(=O)C1CCCN(S(=O)(=O)c2c(C)noc2/C=C/N(C)C)C1 (stereo not given) | -7.2 | 2.4 | nt | nt |
| CCOC(=O)C1CCCN(C(=O)Cn2ncc3c(=O)oc4ccc(C)cc4c32)C1 (stereo not given) | -2.9 | 5.4 | nt | nt |

Rewritten with two lines to a compound: entries from further up.
Each structure is followed by: Arbovirus anti repeat | Arbovirus anti | Mtb growth | YopH inh
CCN1CCN(c2ncnc3c2oc2nc(C)c4c(c23)CC(C)(C)OC4)CC1
  nt | nt | nt | -22.9
O=C(CSc1nnc2c3cc(F)ccc3nc(-c3ccccc3)n12)N1CCOCC1
  nt | nt | nt | 8.1
Cc1c(=O)n(OCc2c(F)cccc2F)c2ccccc2[n+]1[O-]
  nt | nt | nt | -5.0
Cc1nnc2sc(-c3cccc(NC(=O)c4ccc(-c5cccc(Cl)c5)o4)c3)nn12
  nt | nt | nt | 5.8

(continued)
| smiles | Arbovirus anti repeat | Arbovirus anti | Mtb growth | YopH inh |
| --- | --- | --- | --- | --- |
| CCn1c(SCC(=O)Nc2ccccc2C(=O)OC)nc2c1c(=O)n(C)c(=O)n2C | -0.1 | -2.6 | nt | nt |
| Cc1cccc(N2CCN(C(=O)C3CCCN(S(=O)(=O)c4cccc5cccnc45)C3)CC2)c1C (stereo not given) | -8.1 | 15.5 | nt | nt |
| c1ccc(N(c2ccccc2)c2nc(N3CCOCC3)nc(N3CCOCC3)n2)cc1 | -2.1 | 8.4 | nt | nt |
| CC1CCCCN1Cc1nc2c(c(=O)n(C)c(=O)n2C)n1Cc1cccc2ccccc12 (stereo not given) | 0.7 | -0.3 | nt | nt |
| CCC(=O)N1CCc2cc(Br)cc(S(=O)(=O)N3CCN(c4ccccn4)CC3)c21 | -2.4 | 0.7 | nt | nt |
| Cc1cc(Oc2ccccc2)nc2ccc(O)cc12 | 4.3 | 4.7 | nt | nt |
| COc1cccc(C(=O)NCC2CCCO2)c1 (stereo not given) | nt | -0.4 | nt | nt |
| CCOC(=O)c1c(NC(=O)c2cc(C3CC3)on2)sc2c1CCCC2 | -0.1 | 2.6 | nt | nt |
| CCN(CC)CCCN1C(=O)C(O)=C(C(=O)c2ccc(C)o2)C1c1cccs1 (stereo not given) | 2.1 | -1.7 | nt | nt |
| O=C(C1=C[C@H](c2ccccc2)C[C@H](OCc2ccc(CO)cc2)O1)N1CCCCCCC1 | nt | 2.2 | nt | nt |
| CC(C)CCOc1cccc(C2c3c(oc4ccccc4c3=O)C(=O)N2CCCN2CCOCC2)c1 (stereo not given) | 5.8 | 18.1 | nt | nt |
| Cc1ccc(S(=O)(=O)C(C#N)c2nc3ccccc3nc2N2CCCCC2)cc1 (stereo not given) | 2.2 | 0.1 | nt | nt |
| CCOC(=O)c1c(NC(=O)C2CCCN2S(=O)(=O)c2cccc3nsnc23)sc(C)c1C (stereo not given) | -4.2 | 1.2 | nt | nt |
| COc1ccc(C2C(C(C)=O)=C(O)C(=O)N2CCN(C)C)cc1OC (stereo not given) | nt | -1.6 | nt | nt |
| Cc1nccc2[nH]c(=O)c(C(=O)NC3CCN(Cc4ccccc4)CC3)cc12 | -2.7 | -23.5 | nt | nt |
| Cc1ccc(C)c2[nH]c(=O)c(CCNC(=O)C(C)C)cc12 | -3.2 | 0.3 | nt | nt |
| O=C(Nc1nnc(CC(=O)N2CCCC2)s1)c1cnccn1 | 1.1 | 8.8 | nt | nt |
| CN(C(=O)c1ccc(NC(=O)c2cnccn2)cc1)C1CCCCC1 | 3.0 | 9.2 | nt | nt |
| Cn1c(C(=O)N2CCN(c3ccccc3F)CC2)cc2c(=O)n(C)c3ccccc3c21 | -3.5 | 1.1 | nt | nt |
| Cc1ccc2nc(NC3=NCN(Cc4ccco4)CN3)nc(C)c2c1 | -12.1 | 0.0 | nt | nt |
| Cc1ccn2cc(-c3ccc(S(=O)(=O)N4CCOCC4)cc3)nc2c1 | -7.0 | 6.5 | nt | nt |
| CCCC(=O)N1CCN(c2ccc(C(=O)c3ccc(OC)c(Br)c3)cc2F)CC1 | 8.1 | 6.3 | nt | nt |
| Cc1ccc(CN2C(=O)/C(=C3\SC(N4CCOCC4)=NC3=O)c3cc(Br)ccc32)cc1 | -0.8 | 0.1 | nt | nt |
| O=C(CCCCC(=O)N1CCN(c2ccccc2)CC1)N1CCN(c2ccccc2)CC1 | -2.7 | 0.0 | nt | nt |
| Cc1nc2ccccn2c1/C(O)=C1\C(=O)C(=O)N(CCCN(C)C)C1c1ccc(Cl)cc1 (stereo not given) | 2.4 | -3.7 | nt | nt |
| Cn1c(=O)c2c(nc(SCCN3CCOCC3)n2Cc2ccc(Cl)cc2)n(C)c1=O | nt | -3.4 | nt | nt |
| Cc1c2c(=O)n(-c3nc4ccccc4s3)nc-2cc(O)n1Cc1ccccc1 | nt | nt | 3.5% | nt |
| COc1ccc(C(CC(=O)N2CCN(c3ccccc3)CC2)c2c(OC)cc(OC)c3c(-c4ccccc4)cc(=O)oc23)cc1 (stereo not given) | nt | nt | 7.8% | nt |
| CCOc1cccc2cc(C(N)=O)c(=N)oc12 | nt | nt | -9.6% | nt |
| O=C(/C=C1\C(=O)Nc2ccccc21)/C=C1\C(=O)Nc2ccccc21 | nt | nt | 9.0% | nt |
| Cn1cc(/C=C2\SC(=S)N(NC(=O)c3cccc(Cl)c3)C2=O)c2ccccc21 | nt | nt | -2.8% | nt |
| O=C1OCC2OC(O)C(O)C(O)C2OC(=O)c2cc(O)c(O)c(O)c2-c2c(O)c(O)c3oc(=O)c4c(c(O)c(O)c5oc(=O)c2c3c54)-c2c1cc(O)c(O)c2O (stereo not given) | nt | nt | 1.2% | nt |
| NC(=O)C(=CNc1nc(-c2ccc(Cl)c(Cl)c2)cs1)C(N)=O | nt | nt | -3.8% | nt |
| COc1cc(/C=C(/C#N)c2nc(-c3cc4ccccc4oc3=O)cs2)cc([N+](=O)[O-])c1O | nt | nt | 43.2% | nt |
